Screens (PubChem)
PINK1 expr mod – A Quantitative High throughput Screen to Identify Chemical Modulators of PINK1 Expression; PINK1 immunofluorescence, high-content cytometry, 24 h; Potency, µM (series often up to 76.6 µM), without a hit: top-dose activation (PINK1 increase), usual class: activators; 0.2% of 410,000 active; active = well fitted activation curve with a large enough effect; inconclusive = small, poorly fitted or top-dose-only effect; inactive = flat fitted curve, though single readings scatter; cell line not stated here;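 note: potency is the fitted concentration of half-maximal effect; % of control where 0% means no effect; nearly all actives have a fitted effect of over 65% in size; a mitochondrial uncoupler was the plate control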
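Measures PINK1 amount and localization on or inside mitochondria by immunofluorescence. Stable cells get compounds at 5 concentrations for 24 hours before fixation and staining; CCCP controls included.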
gsp antag – qHTS for Antagonists of gsp, the Etiologic Mutation Responsible for Fibrous Dysplasia/McCune-Albright Syndrome: qHTS. gsp-mutant cells, cAMP HTRF, 30 min; control for the full effect not named in the record. Potency, µM (top dose mostly 76.9 µM), for inactives: top-dose activity change, negative = inhibition, most hits filed as inhibitors. 0.4% of 340,000 active. AID 624288, 2012; active = falling curve of any shape with a large fitted effect; inconclusive = falling curve, mostly with a smaller effect; inactive = flat or rising curve; cell line not stated here;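 note: intracellular cAMP measured with PDE inhibitor Ro 20-1724 present during compound exposure; potency is the fitted concentration of half-maximal effect; % is set by controls: 0 for no effect and ±100 for the full control effect; nearly all actives have a fitted effect of over 65% in size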
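HTRF cAMP read-out (cAMP-d2 plus anti-cAMP antibody-K in lysis buffer, 30 min RT). Before lysis, cells are exposed to compounds with […] for 30 min at 37C in DPBS containing Ca/Mg, BSA and Tween 20.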
D2 agonist – Beta-Arrestin HTS for Positive Allosteric Modulators of the Human D2 Dopamine Receptor: Agonists; DiscoveRx PathHunter D2 beta-arrestin, luminescence, 90 min; 100% = 57 uM dopamine signal; activation, % (concentration not given with the values); 0.084% of 360,000 active; AID 624465, 2012; in the data active = activation above about 40%; inconclusive = about 15% to 40%; inactive = below about 15%; note: compound concentration not given in the record; the text of the record calls up to 30% inactive
Target sequence (P14416 whole entry, looked up): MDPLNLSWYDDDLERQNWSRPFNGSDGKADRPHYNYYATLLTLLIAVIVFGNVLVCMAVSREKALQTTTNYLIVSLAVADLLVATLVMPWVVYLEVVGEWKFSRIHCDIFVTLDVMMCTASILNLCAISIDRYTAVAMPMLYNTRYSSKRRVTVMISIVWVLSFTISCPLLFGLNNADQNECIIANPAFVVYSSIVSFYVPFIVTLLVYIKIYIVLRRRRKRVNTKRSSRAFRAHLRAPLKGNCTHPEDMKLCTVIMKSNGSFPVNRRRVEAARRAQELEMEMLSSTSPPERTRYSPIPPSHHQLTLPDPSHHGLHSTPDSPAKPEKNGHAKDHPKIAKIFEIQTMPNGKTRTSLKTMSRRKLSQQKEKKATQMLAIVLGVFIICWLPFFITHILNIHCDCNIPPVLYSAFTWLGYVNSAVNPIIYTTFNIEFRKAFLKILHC
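Agonist mode: compounds alone added to overnight-plated D2 PathHunter cells for 90 min at 37 C, with 57 uM final dopamine (EC100) defining full response. Beta-arrestin recruitment detected by chemiluminescent reagent, read after 1 h at ambient temperature.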
ClpP mod – qHTS Assay for Activators of ClpP; 1.9% of 340,000 active; purified B. subtilis ClpP, FRET peptide cleavage, 20 min; ATP-dependent Clp protease proteolytic subunit (Bacillus subtilis (strain 168)), P80244; Potency, µM (top dose mostly 57.5 µM), without a hit: at the highest dose activity change, negative = active; AID 651965, 2013; active = well fitted falling curve with a large enough effect; inconclusive = small, poorly fitted or top-dose-only effect; inactive = no such curve, though single readings can be large or run the other way; note: potency is the fitted concentration of half-maximal effect; the source files actives as falling curves though it sought activators and does not explain the sign; nearly all actives have a fitted effect of over 65% in size; many hits overshoot -100%
Target sequence (P80244 whole entry, looked up): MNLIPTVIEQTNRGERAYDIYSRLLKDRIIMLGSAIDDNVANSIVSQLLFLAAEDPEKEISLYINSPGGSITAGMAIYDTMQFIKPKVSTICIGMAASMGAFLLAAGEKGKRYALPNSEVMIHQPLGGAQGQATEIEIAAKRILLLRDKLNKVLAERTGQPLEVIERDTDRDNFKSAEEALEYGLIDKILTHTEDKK
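Purified B. subtilis ClpP, 10 microg/mL final in Tris/HCl pH8 with KCl, BSA, glycerol and Tween-20, cleaved an Abz/nitrotyrosine-quenched decapeptide. Fluorescence (ex 320, em 430) was read at 0 and 20 min at room temperature. Delta was normalized to 5.8 microM ADEP and DMSO/no-enzyme controls.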
Sfp PPTase inh – qHTS Assay for Inhibitors of Bacillus subtilis Sfp phosphopantetheinyl transferase (PPTase); 4'-phosphopantetheinyl transferase ffp (Bacillus subtilis), Q9F4F7; Biochemical Sfp PPTase activity, qHTS; Potency, µM, for inactives: max response, negative = inhibition, hits mostly inhibitors; 3.5% of 310,000 active; AID 1490, 2009; active = well fitted inhibition curve with a large enough effect; inconclusive = small, poorly fitted or top-dose-only effect, or another doubt; inactive = no such curve, though single readings can be large or run the other way;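 note: the enzyme is Sfp with the accession as filed and its product quenches rhodamine fluorescence; potency is the fitted concentration of half-maximal effect; 0% = enzyme reaction without inhibitor and -100% = no enzyme wells; top concentration of the series not given in the record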
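Reaction rates are the 30-min fluorescence difference (ex 525, em 598 nm) in wells containing 15 nM Sfp, 5 uM rhodamine-CoA and 12.5 uM BHQ-2-YbbR at pH 7.6 with 10 mM MgCl2.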
Menin-MLL FL inh – qHTS Assay for Inhibitors Targeting the Menin-MLL Interaction in MLL Related Leukemias: Competition With Fluorescein Labeled MLL-derived Peptide; AID 1766, 2009; 290,000 tested, under 10 active; Fluorescence polarization, fluorescein-MLL peptide displacement from menin; FP activity change, % at 61.4 µM; inconclusive = falling polarisation curve, or a change in total fluorescence; inactive = total fluorescence flat and polarisation flat or rising; no compound was filed as active; the % refers to the polarisation; negative = inhibition;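 note: % of control where 0% means no effect; inhibitors lower the polarisation; unlabelled MLL peptide was the positive control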
gsp ag – qHTS for Agonist of gsp, the Etiologic Mutation Responsible for Fibrous Dysplasia/McCune-Albright Syndrome: qHTS; gsp mutant cells, cAMP HTRF, 30 min; control for the full effect not named in the record; 0.13% of 340,000 active; Potency, µM (doses to about 76.9 µM), without a hit: at the highest dose activation (cAMP increase), actives largely listed as activators; AID 624287, 2012; active = well fitted activation curve with a large enough effect; inconclusive = small, poorly fitted or top-dose-only effect, or another doubt; inactive = no such curve, though single readings can be large or run the other way; cell line not stated here;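 note: phosphodiesterase inhibitor Ro 20-1724 added with compounds to block cAMP breakdown; potency is the fitted concentration of half-maximal effect; nearly all actives have a fitted effect of over 60% in size; about a fifth of the inactives were tested at one dose only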
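Cells in DMEM/10% FBS with G418 were pretreated with compounds in DMSO plus […] (300 uM stock) for 30 min at 37C. cAMP was measured by HTRF (cAMP-d2 plus anti-cAMP antibody-K) after 30 min at room temperature.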
* marks the source's active call; other numbers are inactive results; u = inconclusive; x = no result given; [ ] = dose if it differs, or a comment.

Structure	PINK1 expr mod	gsp antag	D2 agonist	ClpP mod	Sfp PPTase inh	Menin-MLL FL inh	gsp ag
Fc1ccccc1C(c1nnnn1Cc1ccc2c(c1)OCO2)N1CCN(Cc2ccccc2)CC1 (configuration not stated)	-1.2%	u	-2.0	0.7%	15.4%	0.1	u
Nc1nccc(-c2cc(-c3ccc(Cl)cc3Cl)no2)n1	-2.6%	5.3%	-2.8	-0.2%	3.5%	0.3	-15.1%[15.4 µM]
CNC(=S)N(CCc1ccc(S(N)(=O)=O)cc1)C1CC(=O)N(c2ccccc2F)C1=O (configuration not stated)	u	x	-0.4	x	6.3%	1.0	-14.4%[15.4 µM]
Cn1nnnc1SCC(=O)NC(=O)c1cccc([N+](=O)[O-])c1	1.0%	3.5%	-1.5	-2.6%	6.9%	-1.4	-11.4%
CCCCN(C(=O)C1COc2ccccc2O1)c1c(N)n(CCC)c(=O)[nH]c1=O (configuration not stated)	-0.3%	-14.8%	4.2	-0.4%	x	x	14.1%
CSc1nc2ccc(NC(=O)c3cc4ccccc4o3)cc2s1	15.9%	-23.9%	-0.7	x	12.9%	3.1	-12.8%
CCOC(=O)c1sc(N)c(C(=O)Nc2ccccc2OC)c1C	9.3%	x	-3.6	x	14.1µM*	-8.9	-1.3%[15.4 µM]
CCOC(=O)N1CCN(S(=O)(=O)c2cc(OCC)ccc2OCC)CC1	0.3%	-1.1%	-2.6	-0.3%	0.2%	-2.6	24.4%
Cc1ccc(N2C(=O)C(NC(=O)c3ccccc3F)(C(F)(F)F)C3=C2CC(C)(C)CC3=O)cc1 (configuration not stated)	u	-11.0%	-3.5	-2.4%	2.4%	x	-1.5%[15.4 µM]
Cn1nc(C(C)(C)C)cc1N1C(=O)CCC1(C)C(=O)NC1CCCCC1 (configuration not stated)	2.6%	x	-2.0	-0.6%	x	x	x
CCOc1ccc(C(C(=O)NCC2CCCO2)N(C(=O)c2snc(C(N)=O)c2N)c2ccc(F)cc2)cc1 (configuration not stated)	-0.1%	-19.1%	-0.2	0.7%	-1.5%	x	-13.7%
O=C1C=C(c2c(O)ccc3ccccc23)c2ccccc2C1=O	-0.7%	-8.7%	14.1	3.2%	x	x	2.6%
Cc1ccc(NC(=O)CN2C(=O)S/C(=C\c3ccc(-c4cccc(C(=O)O)c4C)o3)C2=O)cc1C	1.6%	u	0.7	x	44.7µM*	u	2.1%[15.4 µM]
Cc1cc(NC(=O)c2ccc(Cl)c(S(=O)(=O)N3CCCCC3)c2)no1	6.4%	-2.3%	0.7	1.7%	12.6%	x	-15.8%
CC(=O)N1C(O)CC(C)N1c1ccccc1 (configuration not stated)	-2.0%	12.3%	1.8	-0.3%	5.9%	0.8	7.3%
CCN(CC)CCN1C(=O)C(O)=C(C(=O)c2ccc(C)o2)C1c1ccccn1 (configuration not stated)	-0.7%	4.2%	-1.9	-1.2%	x	x	-36.3%
CC(C)C1Oc2ccccc2N(CC(=O)N(Cc2ccccn2)CC2CCCO2)C1=O (configuration not stated)	1.4%[38.3 µM]	-10.1%	-2.3	-1.2%	0.8%	-0.1	u
CCOc1cc(/C=C2\SC(=O)N(c3ccc(O)cc3)C2=O)ccc1O	16.0%	31.6µM*	3.1	0.1%	-2.3%	u	9.6%
Cc1ccc(N=C(N)N=C(N)N)c(C)c1	2.0%	8.2%	-5.8	0.8%	14.2%	3.3	1.3%[15.4 µM]
CC1(C(=O)NC2CCN(Cc3ccccc3)CC2)CCN1Cc1ccc2ccccc2c1 (configuration not stated)	-1.4%	x	-5.9	-7.3%	x	x	x
Cc1cccc(NC(=S)N/N=C/c2cccc(O)c2)c1C	3.0%	7.1%	-3.1	-4.8%	6.4%	-0.2	u
Cc1ccn2c(=O)nc(SCC(=O)OCc3ccccc3)nc2c1	1.7%	-9.6%	-6.5	x	x	x	-8.2%[15.4 µM]
Cn1c(=O)c2c(nc(CN3CCN(CCO)CC3)n2Cc2cccc3ccccc23)n(C)c1=O	-2.4%[38.3 µM]	0.4%	-3.5	-0.1%	2.8%	1.6	-26.5%
COc1ccc(C(=O)ON=C(C)c2nccs2)cc1	3.1%	x	-5.4	-2.6%	x	x	x
COC(=O)c1c(-c2ccc(C)cc2)csc1NC(=S)NC(=O)c1cc(OC)cc(OC)c1	-1.1%	6.8%	-7.3	-15.4%	u	1.2	-6.1%
Cc1cccc(/C=C2/Sc3ccc(C(=O)NCCN4CCCC4)cc3NC2=O)c1	-0.9%	-1.9%	u	-1.7%	u	2.5	-2.6%
COc1cccc(-c2cnc3c(NC(C)=O)cc(-c4cccc(NC(C)=O)c4)cn23)c1	2.8%	x	12.4	4.6%	x	x	x
CCc1cc[n+](C(C(=S)Nc2cccc(C)c2)=C([O-])c2ccc(C)c([N+](=O)[O-])c2)cc1	0.7%	-17.1%	-3.4	0.5%	x	x	-68.9%[inhibitor]
COC(=O)c1ccc(NC(=S)NC2CC(C)(C)NC(C)(C)C2)cc1	2.4%	-3.9%	-1.2	-0.7%	-1.0%	-1.6	13.9%
Cc1cccc(CNC(=O)C2CCC(=O)N(CCc3cccc(F)c3)C2)n1 (configuration not stated)	0.4%	-4.5%	0.9	-2.4%	16.8%	0.9	-8.5%
CC1=C(C(=O)N(C(C)C)C(C)C)CC(CC(=O)NCCCN(C)C)C(=O)N1Cc1ccc(C(C)(C)C)cc1 (configuration not stated)	3.2%	x	-4.1	0.1%	x	x	x
COc1ccc(/C=N/Nc2cc(C)nc3c(C)cccc23)cc1	-1.9%	9.0%	2.2	-11.6%	u	-25.8	-20.1%
CCN(C(=O)Cn1c(=O)oc2ccccc21)c1ccc(C)c(C)c1	-1.6%	2.7%	-0.4	1.6%	2.8%	-1.6	36.5%
O=C(OCc1ccc(Cl)cc1Cl)c1ccncc1	u	4.9%	2.5	-0.7%	-21.1%	5.1	-1.0%
COC(=O)c1ccc(C(=O)OC)c(NC(=S)N2CCN(c3cc(Cl)ccc3C)CC2)c1	2.3%	-14.6%	3.0	-0.7%	17.2%	7.3	-52.1%[inhibitor]
CC(=O)CCSc1nnc(-c2cccc(S(=O)(=O)N3CCOCC3)c2)o1	0.5%	0.8%	-5.4	3.4%	x	x	u
O=C(O)c1cc(C(=O)O)cc(-c2ccc(/C=c3/sc4nc5ccccc5n4c3=O)o2)c1	u	10.9%	1.9	x	7.08µM*	u	-6.9%
O=C(Nc1ccccc1N1CCOCC1)c1ccc2nc[nH]c2c1	3.3%	-2.7%	-4.7	x	10.8%	-0.6	28.7%[15.4 µM]
CCN(CC)CCNC(=O)C1(c2ccccc2)CCCCC1	0.8%	3.7%	0.2	x	x	x	7.9%
COc1ccc(NC(=O)CN(c2cc(C)cc(C)c2)S(=O)(=O)c2c(C)n[nH]c2C)cc1	2.1%	-19.5%	-2.5	0.3%	9.5%	0.3	-34.5%
COc1ccc(-n2nc3c(c2NC(=O)CCCl)CSC3)cc1	2.2%	-8.4%	-3.2	x	16.3%	-1.6	-10.4%
C#Cc1ccc([C@H]2C=C(C(=O)N3CCN(Cc4ccc5c(c4)OCO5)CC3)O[C@@H](OCC)[C@@H]2CCCO)cc1	0.0%	u	2.8	0.4%	7.3%	-0.7	x
CSc1ccc(NC(=O)c2cccnc2)cc1C#N	-3.3%	-11.0%	5.8	x	16.0%	3.4	-0.9%
CCCCc1ccc(S(=O)(=O)N/N=C(/C)c2ccncc2)cc1	0.0%	5.2%	-3.3	31.6µM*	0.9%	x	-0.8%[15.4 µM]
Cc1ccn(CC(=O)NC2CC(C)(C)Cc3c2cnn3-c2ccc(F)cc2)n1 (configuration not stated)	2.8%	-4.5%	-3.9	-4.0%	11.3%	x	15.3%[15.4 µM]
c1ccc2c(N3CCOCC3)nc(-c3ccncc3)nc2c1	-5.3%	-5.4%	3.5	-3.9%	2.3%	-1.4	-7.4%
Cc1nnc(NC(=O)CSc2nnc(C)n2Cc2ccccc2)s1	-0.4%	0.9%	0.2	-0.8%	-12.0%	2.9	-0.1%
CCc1ccc(Nc2nnc(SCC(=O)Nc3sccc3C(N)=O)s2)cc1	-4.9%	-7.3%	0.6	-3.0%	-15.2%	7.8	4.0%
O=C(NCc1ccccc1Cl)C1CCN(C(=O)c2ccc(F)cc2)CC1	-0.2%	x	-1.3	-1.9%	x	x	3.0%
O=C(/C=C/c1cccc(F)c1)OCC(=O)c1ccc[nH]1	-0.6%	-7.2%	-3.7	-0.8%	x	x	-4.9%
CCCOc1nc2c(c(=O)n(C)c(=O)n2C)n1C	-0.1%	2.9%	-3.0	x	14.5%	-0.6	4.3%[15.4 µM]
C/C(=N/NS(=O)(=O)c1ccc(C)c(C)c1)c1c[nH]c2ccccc12	4.8%	2.5%	-1.9	-0.1%	12.3%	0.2	18.7%
CCOC(=O)CNC(=S)N(Cc1ccco1)Cc1ccccc1Cl	0.5%	39.8µM*	3.2	-0.9%	-2.4%	13.6	-6.9%
CC(=O)Oc1cc(C(=O)OCC(=O)N2CCc3ccccc3C2)cc(OC(C)=O)c1OC(C)=O	-0.4%	4.6%	0.9	-2.8%	x	x	-1.0%[15.4 µM]
Cc1ccc(-c2c[n+](Cc3ccc(Cl)cc3)c3n2CCC3)cc1	-1.6%	6.7%	-5.9	-9.7%	18.8%	-4.7	6.0%[15.4 µM]
CCCCn1c(N)c(NCCC)c(=O)[nH]c1=O	0.4%	5.6%	1.9	-12.1%	1.6%	-18.8	-35.3%[inhibitor]
COC(=O)C1=C(C)N(c2ccc(OC)cc2)C(C)=C(C(=O)OC)C1c1ccc(OC)cc1	3.4%	-8.2%	-7.6	0.0%	3.4%	-2.6	14.4%[15.4 µM]
